HSV replic up: enhancers of HSV replication in host cells, fold increase, host cell viability | HSV replication augmentation in cells | maximum fold increase | actives 0.005% (n = 220,000) | AID 1956, 2009;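 active means peak rise of 1.5-fold or more in the series; inconclusive means self-fluorescent or not available for retest; tested in PC3 cells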;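 further: first round at 10 µM; read as green reporter fluorescence; hits show the peak of a series up to 25 µM; 1 = signal of infected wells without compound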
Insulin prom inh: inhibitors of insulin promoter-driven GFP, primary screen, imaging, TRM-6 cells (human fetal islet line), eGFP reporter, cell count; reporter expression induced with tamoxifen; inhibition, % at 2 µM; actives 0.9% (n = 130,000); AID 1273, 2008;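 active means inhibition above the mean plus 3 SD, with well images judged a real hit on visual review, cut at about 60% in these data, passing the limit was not always enough; inconclusive means inhibition over the cutoff but images rejected on review; inactive means inhibition not above the cutoff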
GALR2 agonist: GALR2 receptor agonists, primary screen, cell-based; activation, %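 (tested at 5 µM)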; GALR2-expressing cells, agonist activation read-out; actives 0.48% (n = 140,000);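 active means above mean plus 3 SD of all compounds, about 5% in these data, not always enough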;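 further: 0% = vehicle buffer wells and 100% = reference agonist at full effect; tested in CHO reporter cells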
Target sequence (O43603 whole entry, looked up): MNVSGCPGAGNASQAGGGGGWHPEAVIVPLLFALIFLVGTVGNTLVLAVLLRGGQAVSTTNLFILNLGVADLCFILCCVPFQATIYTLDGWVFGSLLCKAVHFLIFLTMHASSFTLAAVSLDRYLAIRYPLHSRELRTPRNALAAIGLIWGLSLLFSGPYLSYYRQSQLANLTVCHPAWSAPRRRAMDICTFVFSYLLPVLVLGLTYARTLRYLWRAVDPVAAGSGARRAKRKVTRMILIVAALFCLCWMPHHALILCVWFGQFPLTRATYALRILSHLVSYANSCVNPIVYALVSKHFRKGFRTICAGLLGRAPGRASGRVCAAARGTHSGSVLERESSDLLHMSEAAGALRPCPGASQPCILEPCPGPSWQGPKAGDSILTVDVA
PKD1 kinase inh: inhibitors of human PKD1 kinase, biochemical, fluorescence polarization; PKD1 kinase fluorescence polarization assay; inhibition, %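 (about 10 µM by stock and volumes)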; actives 0.056% (n = 200,000); AID 797, 2007;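 active means inhibition of 50% or more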;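 further: controls were vehicle for no effect and a reference inhibitor for full effect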
RGS16-Gao: modulators of RGS16 binding to Galphao, primary screen, biochemical, human proteins, multiplexed bead flow cytometry; Regulator of G-protein signaling 16 (Homo sapiens) + Guanine nucleotide-binding protein …; bead-based flow cytometry RGS16-Galphao binding, fluorescence; actives lie on both sides; binding response (% of control), % at 10 µM; actives 0.38% (n = 220,000); AID 1441, 2008;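 active means below 25% or above 175%, edge rows of some plates excepted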;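 further: Galphao activated by GDP with aluminum fluoride before binding; 100% = wells without compound and 0% = beads without RGS; some results beyond the cut were filed as inactive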
Target sequence (O15492 whole entry, looked up): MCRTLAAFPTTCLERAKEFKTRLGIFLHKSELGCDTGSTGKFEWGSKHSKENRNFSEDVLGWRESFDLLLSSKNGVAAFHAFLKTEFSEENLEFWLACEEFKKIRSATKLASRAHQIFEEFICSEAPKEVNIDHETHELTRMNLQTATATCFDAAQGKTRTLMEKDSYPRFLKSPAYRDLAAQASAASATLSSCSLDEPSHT
Target sequence (P09471 whole entry, looked up): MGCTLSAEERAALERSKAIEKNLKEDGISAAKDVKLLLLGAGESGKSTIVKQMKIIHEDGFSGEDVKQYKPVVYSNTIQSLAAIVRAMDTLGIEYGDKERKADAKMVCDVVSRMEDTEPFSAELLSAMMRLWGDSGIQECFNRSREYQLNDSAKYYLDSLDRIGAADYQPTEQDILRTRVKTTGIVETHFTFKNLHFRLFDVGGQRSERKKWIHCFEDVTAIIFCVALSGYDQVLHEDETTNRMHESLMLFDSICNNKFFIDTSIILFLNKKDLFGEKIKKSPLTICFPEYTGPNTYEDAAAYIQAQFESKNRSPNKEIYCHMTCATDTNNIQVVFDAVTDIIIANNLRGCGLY
Insulin prom inh cell count: recorded beside Insulin prom inh, whose call it bears; normalized cell count, %; measured here: cell count, toxicity; reference of the scale not given here;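 cells exposed to compound for 48 h; stained nuclei by imaging scaled within each plate; lower means fewer cells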
HSV replic up primary fold: also measured in HSV replic up; calls as there; fold increase; compound at 10 µM; measured here: primary screen fold increase 10 uM; tested in PC3 cells;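 GFP signal in the first replicate; 1 = infected wells without compound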
Active calls of the source: *; i = inactive; ? = inconclusive; . = not tested or not shown.

SMILES	HSV replic up	HSV replic up primary fold	Insulin prom inh	Insulin prom inh cell count	GALR2 agonist	PKD1 kinase inh	RGS16-Gao
C=CCOC(=O)C1=C(C)Nc2nnnn2C1c1cc(OC)ccc1OC (centres undefined)	i	1.1	.	.	0.0	-7	131
Cc1ccc(S(=O)(=O)NNC(=S)NC(C)(C)C)cc1	?	.	.	.	.	.	104
CN(Cc1ccccc1)Cc1ccccc1F	i	1.1	.	.	0.2	-7	105
O=C(Nc1ccc(NC(=O)C2CCCCC2)nc1)c1ccco1	i	0.85	30	81	-3.5	-11	96
CC(=O)C1=C(O)CCC1=NCCc1ccccc1	i	1.4	14	81	-0.6	-1	99
O=C(Nc1cc(C(F)(F)F)ccc1-n1cncn1)c1ccc(-c2ccccc2)cc1	i	0.97	-78	87	-2.4	-2	99
O=C(NCCCn1ccnc1)Nc1cccc(Cl)c1	i	0.79	30	96	-1.2	8	102
COc1cc(/C=C/C(=O)OCC(=O)NC2CC2)cc(S(=O)(=O)N2CCc3ccccc32)c1OC	i	0.94	5	84	.	-4	97
O=C1c2ccc3c4c(ccc(c24)C(=O)N1NC(=O)C(F)(F)F)CC3	i	0.92	-37	73	0.1	-3	99
CSc1ncccc1C(=O)Nc1nnc(C2CC2)s1	i	0.9	29	132	.	-2	104
CCC(=O)NC(Nc1sc2c(c1C(=O)OC)CCC2)C(Cl)(Cl)Cl (centres undefined)	i	0.84	8	87	0.5	3	100
CCCC(=O)Nc1cc(C)c(NC(=O)c2ccncc2)cn1	i	1.1	.	.	-2.5	-1	109
CC(C)Cc1cc(C(=O)Nc2cccnc2)no1	i	0.6	.	.	-1.5	-17	113
O=C(COC(=O)c1sc2ccccc2c1Cl)NC1CCCCC1	i	1	-19	54	1.7	1	109
Clc1ccc(N2CCN(/N=C/c3ccncc3)CC2)cc1	i	1.2	.	.	.	.	106
CCOC(=O)Cc1cc(=O)n2[nH]c(C)c(-c3ccccc3OC)c2n1	i	0.95	-25	38	.	-2	118
CC(C(=O)N1CCc2ccccc21)N1CCN(c2ccccn2)CC1 (centres undefined)	i	1	21	85	-1.1	-22	113
COC(=O)c1sccc1NC(=O)c1ccccc1[N+](=O)[O-]	i	0.93	43	156	-0.7	0	98
COc1cc(/C=N/Nc2ccc(S(N)(=O)=O)cc2)cc(OC)c1OC	i	1.1	.	.	.	2	105
CCCCCCCCSc1n[nH]c(N)n1	i	0.91	-42	103	-1.6	-6	105
COc1ccc(CC(=O)NCc2nnc(SCC(=O)N3CCN(c4ccccc4)CC3)n2C)cc1	.	.	26	173	-1.2	-8	.
CCOC(=O)Cc1csc(NC(=O)COc2ccc(C)cc2)n1	i	0.87	.	.	.	-1	84
CCc1nnc(NC(=O)c2cccs2)s1	i	0.72	.	.	-1.6	13	104
CCOC(=O)c1c(C)[nH]c(C)c1C(=O)CSc1nnnn1-c1ccccc1	i	1	-57	79	0.0	1	98
CC(C)CN(C(=O)COC(=O)Cc1n[nH]c(=O)c2ccccc12)C1CCS(=O)(=O)C1 (centres undefined)	i	1.1	-24	117	0.3	-3	102
CNc1nc(-c2ccc3c(c2)CCN3C(=O)c2ccccc2C)cs1	i	0.91	.	.	.	-1	109
CCOC1=C/C(=C/c2c(N)n3nc(-c4ccccc4)sc3nc2=O)C=CC1=O	.	.	30	143	.	4	99
Cc1ccc2nc(SCC(=O)Nc3cc([N+](=O)[O-])ccc3F)[nH]c2c1	i	0.75	.	.	0.5	1	104
CCOC(=O)c1c(/N=C/C2=C(O)CCCC2=O)sc(C)c1C	i	0.96	-50	98	-0.2	-7	99
COc1ccc(NC(=O)C2CCC(CNS(=O)(=O)c3cccs3)CC2)cc1 (centres undefined)	i	1	-11	130	.	-2	99
CC(Oc1ccc(Cl)cc1Cl)C(=O)OCn1nnc2ccccc2c1=O (centres undefined)	i	0.93	6	175	3.3	-3	104
O=C(/C(C=Nc1cc2c(oc1=O)CCCC2=O)=C(\O)c1ccccc1)c1ccccc1	i	1.1	.	.	.	-4	101
CCN(CCO)Cc1csc2cc(C)ccc12	i	0.8	12	58	-2.5	-1	96
CCCCOC(=O)c1ccc(NC(=O)C(=O)NCc2ccccn2)cc1	i	1.1	.	.	.	.	81
CCCCC(=O)NC1=C(C(=O)OC)SCC1	i	1.1	.	.	0.9	3	99
O=C(COC(=O)c1ccc(O)cc1)Nc1ccccc1-c1ccccc1	i	1	-67	94	-2.8	-6	104
CCC(C)(C)NC(=O)CN(C(=O)c1csnn1)c1cccc2c1CCCC2	i	1	.	.	.	-1	101
COc1cccc(OCc2cc(/C=N/Nc3ccc(C(=O)O)cc3)ccc2OC)c1	i	0.95	.	.	.	.	102
Cc1ccc(-c2cc(Cc3ccccc3)c(=O)[nH]n2)cc1	i	0.94	.	.	.	.	97
O=C(NC12CC3CC(CC(C3)C1)C2)C1CCCN1C(=O)NC1CCCCC1 (centres undefined)	i	0.88	-34	161	0.5	-3	105
CCc1nc(N2CCOCC2)c(C#N)c2c1COC(C)(C)C2	i	0.99	.	.	0.3	-4	141
Cn1c(=O)cc(N2CCc3ccccc32)[nH]c1=O	i	1	.	.	-3.5	-14	105
COc1ccccc1/C=C(\NC(=O)c1ccc(OC)c(OC)c1)C(=O)Nc1cccc([N+](=O)[O-])c1	i	1.1	-26	89	0.5	1	52
Cc1ccnc(N2C(=O)c3ccccc3C2Nc2cccc(C)c2C)c1 (centres undefined)	i	1.1	.	.	-0.2	0	100
CC(=O)Nc1cccc(NC(=O)CCn2cnc3cc(C)c(C)cc32)c1	i	0.81	-73	107	-1.6	0	111
Cc1ccc(CSc2nc3ccncc3n2CC(=O)Nc2cc(C)cc(C)c2)cc1	i	0.87	-20	124	-1.1	-4	100
CCCCP(=O)(CCCC)CCP(=O)(c1ccccc1)c1ccccc1	i	0.98	-25	103	-0.7	5	106
Cc1cc2ccccn2c1C(=S)NC(=O)c1ccccc1	i	1	23	91	-0.8	-11	67
c1ccc2c(c1)nc(Nc1ccc(N3CCCCC3)cc1)c1nncn12	i	0.9	.	.	.	.	102
Cc1[nH]c2ccccc2c1C(=O)COC(=O)Cn1c(C)nc2ccccc21	i	1.1	27	73	1.1	12	119
Cc1ccc([N+](=O)[O-])cc1N(CC(=O)Nc1ccc(S(=O)(=O)Nc2cccc(C(F)(F)F)c2)cc1)S(C)(=O)=O	i	0.73	39	70	-1.1	1	101
Cc1ccc(-n2c(-c3ccncc3)nnc2-c2ccco2)cc1	i	0.87	.	.	-0.3	-5	110
O=C(N/N=C1/CC(c2ccccc2)Oc2ccccc21)C1CC1 (centres undefined)	i	1	-6	74	0.2	-6	99
NNC(=O)C(=O)/C=C1\NC2(CCCC2)Cc2ccccc21	i	0.98	.	.	.	.	98
O=C(NC1CC1)c1scc2c1OCCO2	i	1	29	90	-0.8	-4	108
O=c1[nH]c2ccccc2nc1-c1ccc(Cl)cc1	i	0.92	.	.	.	.	98
CCc1nnc(NC(=O)/C=C/c2cccs2)s1	i	1.1	53	92	.	1	100
S=C(NCc1ccc2c(c1)OCO2)Nc1ccc(-c2nc3ccccc3[nH]2)cc1	i	0.97	-373	57	-0.9	3	171
Cc1ccc(CSC2=NCCN2C(=O)c2ccc([N+](=O)[O-])cc2)cc1	i	0.92	.	.	.	-4	104
O=C(CSc1nnc(-c2ccc(O)cc2)o1)Nc1ccc2c(c1)OCCO2	i	1.1	9	71	0.3	5	97

(more compounds)
SMILES	HSV replic up	HSV replic up primary fold	Insulin prom inh	Insulin prom inh cell count	GALR2 agonist	PKD1 kinase inh	RGS16-Gao
CC(C)CNC(=O)c1cccc(NC(=O)C(C)Oc2ccccc2)c1 (centres undefined)	i	0.99	.	.	.	-4	102
Cc1ccc(-n2c(-c3ccco3)nc3c(cnn3-c3ccccc3C)c2=O)cc1	i	1.1	.	.	-1.5	-7	104
O=C(CN1C(=O)c2ccccc2C1=O)Nc1ccc(Cl)cn1	i	1	.	.	.	-4	102
O=C(N/N=C/c1ccncc1)c1ccc(NS(=O)(=O)c2cccs2)cc1	i	1	20	106	.	-2	103
CN1CCNC(=O)C1CC(=O)NCC1(c2ccccc2)CCCCC1 (centres undefined)	i	0.83	.	.	.	1	111
CCOC(=O)N1CCC(N2C(=O)c3ccc(C(=O)Nc4ccc(F)cc4F)cc3C2=O)CC1	i	0.92	.	.	-1.0	-8	102
C=CCN(CC=C)C(=O)c1ccncc1	i	0.96	41	163	-0.2	-6	100
CC(=O)c1ccc(NC(=O)C(C)N(C)CC(=O)Nc2ccc(Cl)cc2)cc1 (centres undefined)	i	0.91	-24	79	.	-8	92
O=c1c2ccccc2nc(/C=C/c2c[nH]c3ccccc23)n1CCO	i	0.82	.	.	.	-3	114
CC(=O)c1sc(NC(=O)COc2c(C)cc(Cl)cc2C)nc1C	i	0.94	.	.	.	-1	101
O=C(Cc1ccc(Br)cc1)N1CCN(c2ccccn2)CC1	i	0.96	7	166	-0.8	-7	105
COc1ccc(-c2csc(NC(=O)CN3C(=O)CCC3=O)n2)cc1OC	i	1.3	.	.	0.6	6	101
COC(=O)C1CSC(C)(C)C(=O)N1 (centres undefined)	i	0.93	-31	83	.	1	102
COc1cc(S(=O)(=O)N2CCCC3(CCCCC3)C2)ccc1-n1cnnn1	i	0.83	-5	119	-0.2	-2	97
O=C(Nc1cccnc1)c1ccc(NS(=O)(=O)c2cccc([N+](=O)[O-])c2)cc1	i	0.95	62	103	.	1	96
Cc1nc(S(=O)(=O)N2CCN(C3c4ccccc4-c4ccccc43)CC2)cn1C	i	1.1	.	.	.	.	93
C=CCOc1c2ccc(C(=O)NCc3ccc(OC)cc3)cc2nn1C	i	0.81	23	107	-2.5	-5	95
CCOC(=O)c1ccc(S(=O)(=O)N2CCN(CC(=O)NC(=O)NC(C)(C)C)CC2)cc1	i	0.98	11	54	-2.7	1	104
CN(C)CCOC(=O)C1(c2ccccc2)CCCC1	i	1.1	15	82	-1.7	-8	103
COc1ccc(-c2nc(-c3ccc(NC(=O)c4ccncc4)cc3)no2)cc1OC	i	0.73	.	.	2.6	-15	102
CCOc1cc(N2CCOCC2)c(OCC)cc1NC(=O)CN1C(=O)NC2(CCc3ccccc32)C1=O (centres undefined)	i	0.99	10	103	0.1	2	93
Cc1nc(Nc2ccccc2)sc1C(=O)Nc1ccccc1	i	1.1	.	.	.	.	104

Gathered by group, those above with a thiophene ring, fused or not.
SMILES	HSV replic up	HSV replic up primary fold	Insulin prom inh	Insulin prom inh cell count	GALR2 agonist	PKD1 kinase inh	RGS16-Gao
CCC(=O)NC(Nc1sc2c(c1C(=O)OC)CCC2)C(Cl)(Cl)Cl (centres undefined)	i	0.84	8	87	0.5	3	100
O=C(COC(=O)c1sc2ccccc2c1Cl)NC1CCCCC1	i	1	-19	54	1.7	1	109
COC(=O)c1sccc1NC(=O)c1ccccc1[N+](=O)[O-]	i	0.93	43	156	-0.7	0	98
CCc1nnc(NC(=O)c2cccs2)s1	i	0.72	.	.	-1.6	13	104
CCOC(=O)c1c(/N=C/C2=C(O)CCCC2=O)sc(C)c1C	i	0.96	-50	98	-0.2	-7	99
COc1ccc(NC(=O)C2CCC(CNS(=O)(=O)c3cccs3)CC2)cc1 (centres undefined)	i	1	-11	130	.	-2	99
CCN(CCO)Cc1csc2cc(C)ccc12	i	0.8	12	58	-2.5	-1	96
O=C(NC1CC1)c1scc2c1OCCO2	i	1	29	90	-0.8	-4	108
CCc1nnc(NC(=O)/C=C/c2cccs2)s1	i	1.1	53	92	.	1	100
O=C(N/N=C/c1ccncc1)c1ccc(NS(=O)(=O)c2cccs2)cc1	i	1	20	106	.	-2	103

Screening data: PubChem BioAssay, several laboratories
